A488 autofl = A488 region autofluorescence; compound autofluorescence, A488 spectral region, dye equivalency; stronger effect = higher value; max dye equivalency, M; 59,000 tested, 0.1% active; active = above 10 nM dye equivalent; inconclusive = 1 to 10 nM; inactive = 1 nM or less; about half of its hits are not listed in these tables;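 also: highest value over a series up to 38 µM; compound alone in buffer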
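Spectroscopic profiling in the A488 region: compounds in pH 8.0 Tris (100 mM), 15 min RT, CCD imaging with 480 nm excitation and 540 nm emission; responses normalized against A488 dye standards.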
AID923 = qHTS Assay for Allosteric/Competitive Inhibitors of Caspase-1: Spectroscopic Profiling in AFC Spectral Region. compound fluorescence, AFC spectral region (405/520 nm); almost no hit is shown here. Potency, µM (top dose mostly 57.5 µM), for inactives: top-dose fluorescence increase, hits mostly activators. 75,000 tested, 1.1% active. AID 923, 2007; active = well fitted activation curve with a large enough effect; inconclusive = small, poorly fitted or top-dose-only effect;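 also: potency is read from the fitted curve at half-maximal effect; 0% is about no effect; scaled to a free AFC standard on each plate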
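Baseline compound fluorescence (AFC region, 405 nm ex/520 nm em) taken from the intercept of kinetic reads with 50 nM caspase-1 and 5 uM Ac-WEHD-AFC; normalized to an on-plate AFC standard curve; compounds titrated up to 57 uM.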
A647 autofl = A647 region autofluorescence; 59,000 tested, under 10 active; max dye-equivalent concentration, M; Compound fluorescence, A647 channel (570/671 nm), Tris buffer; active means above 1 µM dye equivalent; inconclusive means 0.1 to 1 µM; inactive means 0.1 µM or less;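 also: values scaled relative to a standard on each plate; highest value over a series up to 38 µM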
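Tris 100 mM pH 8.0; cpd + A647 stds pin-transferred; 15 min RT; CCD imager, ex 570/em 671. Output = A647-equivalent conc. per cpd conc.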
Resorufin fluor = resorufin region autofluorescence; Compound fluorescence, resorufin region 547/598 nm, buffer; stronger effect = higher value; max dye-equivalent concentration, M; 59,000 tested, 0.04% active; AID 588; active = above 10 nM dye equivalent; inconclusive = 1 to 10 nM; inactive = 1 nM or less; a few of its hits are not listed in these tables; also: highest value over a series up to 38 µM
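Compounds in 100 mM Tris buffer, pH 8.0, incubated 15 min at room temperature, then read with 547 nm excitation and 598 nm emission filters. Fluorescence was converted to dye-equivalent concentration using an on-plate six-point resorufin standard curve.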
TSHR agonist = TSH receptor (human) agonism; HEK293-CNG-TSHR cells (CNG channel as cAMP sensor), membrane potential dye, cAMP; P16473; 73,000 tested, 0.48% active; Potency, µM (titrated, usually from 57.1 µM), without a hit: at the highest dose activation, hits mostly activators; active = well fitted activation curve of enough size with the parental cells flat; inconclusive = any curve in the parental cells; inactive = parental cells flat and receptor cells flat or falling; also: potency is read from the fitted curve at half-maximal effect; % of control where 0% means no effect; weak receptor curves with flat parental cells got no call and are not listed
Target sequence (P16473 whole entry, looked up): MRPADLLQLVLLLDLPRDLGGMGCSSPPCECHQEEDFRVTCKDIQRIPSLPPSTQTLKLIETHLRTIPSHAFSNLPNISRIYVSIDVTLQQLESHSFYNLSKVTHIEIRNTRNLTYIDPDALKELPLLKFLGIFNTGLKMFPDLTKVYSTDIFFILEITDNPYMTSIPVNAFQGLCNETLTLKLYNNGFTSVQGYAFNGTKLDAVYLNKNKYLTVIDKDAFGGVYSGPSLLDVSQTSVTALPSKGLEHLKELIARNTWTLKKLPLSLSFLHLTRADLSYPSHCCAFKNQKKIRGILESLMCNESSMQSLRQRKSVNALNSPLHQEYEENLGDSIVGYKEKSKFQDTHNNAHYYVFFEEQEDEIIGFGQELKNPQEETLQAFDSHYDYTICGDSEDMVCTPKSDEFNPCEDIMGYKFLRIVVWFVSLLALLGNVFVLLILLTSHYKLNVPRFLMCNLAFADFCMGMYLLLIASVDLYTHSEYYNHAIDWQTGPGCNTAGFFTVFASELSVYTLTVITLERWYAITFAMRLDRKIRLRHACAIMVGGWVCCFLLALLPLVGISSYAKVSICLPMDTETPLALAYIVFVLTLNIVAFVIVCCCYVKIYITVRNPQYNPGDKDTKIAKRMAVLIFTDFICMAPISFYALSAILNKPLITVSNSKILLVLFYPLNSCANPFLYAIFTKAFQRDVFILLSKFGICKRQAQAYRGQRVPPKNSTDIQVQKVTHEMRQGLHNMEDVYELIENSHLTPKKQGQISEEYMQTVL
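HEK 293 cells stably expressing TSHR and a modified CNG channel, with CNG-only parental cells as counterscreen, were preloaded 60 min at room temperature with membrane potential dye containing 100 uM RO 20-1724. Compound exposure was 30 min, and depolarization was read as fluorescence at 590 nm.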
* marks the source's active call; other numbers are inactive results; i = inactive; ? = inconclusive; . = no result given; & = joins results of further samples; [ ] = dose if it differs, or a comment. An excerpt (hit frequency here may not be typical).

SMILES	A488 autofl	AID923	A647 autofl	Resorufin fluor	TSHR agonist
OCCN1CCN(Cc2cc(Br)cc(Br)c2O)CC1	.	1.8%	.	.	2%
OCC#CCSc1nnc(-c2ccccc2Br)o1	i	-1.1%	2.2e-08	i	11%
CC(=O)Nc1nc2c(c3c1c(=O)oc1ccccc13)CCCC2	.	4.1%	.	.	4%
CCC/C=C(\CCC)C(NP(=O)(c1ccccc1)c1ccccc1)c1ccc(C(F)(F)F)cc1 (configuration not stated)	.	-1.0%	.	.	?
O=C(Nc1cccc(Cl)c1)Nc1ccc2c(c1)OCO2	i	-0.2%	1.2e-08	i	-29%
Cc1ccccc1-n1c(-c2cccnc2)n[nH]c1=S	i	0.1%	1e-09	i	-15%
O=C(COc1ccccc1Cl)N1CCCC1	i	-0.2%	1.1e-08	i	-9%
CCn1c(CNc2ccc(OC)cc2)nnc1SCC(=O)c1ccc(OC)cc1	i	-3.1%	1.3e-08	i	12%
CC1(C)CC(=O)C2=C(C1)N(CC1CCCO1)C(=O)C2(NC(=O)c1cccnc1)C(F)(F)F (configuration not stated)	i	0.2%	5.2e-08	i	-2%
CCOc1ccc(OCc2ccc(C(=O)O)o2)cc1	i	-1.5%	3.2e-08	i	0%
O=S(=O)(c1ccccc1)N1CCC2(CCN(c3ccncc3)CC2)CC1	i	2.0%	2.2e-09	i	-1%
O=C1C2CC=C(Cl)CC2C(=O)N1CNc1ccccn1 (configuration not stated)	i	.	3.8e-09	i	.
CSc1nnc(Cc2cc(=O)[nH]c(=O)[nH]2)n1-c1cccc(C)c1	i	0.0%	4.5e-08	i	?
Oc1c(C(c2cccs2)N2CCN(c3ccc(F)cc3)CC2)sc2ncnn12 (configuration not stated)	.	-3.9%	.	.	3%
CCOc1ccc(N2C(=O)CC(Sc3ncccn3)C2=O)cc1 (configuration not stated)	i	2.1%	1e-09	i	1%
O=S(=O)(c1ccc(Br)cc1)N1CCn2c(nc3ccccc32)C1	.	5.4%	.	.	0%
CS(=O)(=O)N(CC(=O)N1CCN(Cc2ccccc2)CC1)Cc1ccccc1	i	-1.0%	1e-09	i	?
COc1ccc(N2CCN(C(=O)C3CCCN(S(=O)(=O)c4cccc5cccnc45)C3)CC2)cc1 (configuration not stated)	.	-2.5%	.	.	1%
COc1ccccc1N1CCN(CCN(C(=O)c2ccc(I)cc2)c2ccccn2)CC1	i	.	3.1e-09	i	?
O=C(O)CSc1ncn[nH]1	i	-1.0%	1e-09	i	2%
O=C(NC1CC1)C1C2C3C4CC5C3C5C4C12 (configuration not stated)	i	-0.6%	3.8e-09	i	-10%
Cc1ccccc1Cn1c(CN2CCc3ccccc3C2)nc2c1c(=O)n(C)c(=O)n2C	i	2.0%	2.1e-08	i	?
CSCCC(NC(=O)COc1ccccc1)C(=O)N1CCN(c2ccccc2F)CC1 (configuration not stated)	i	-2.7%	3.9e-09	i	3%
COC(=O)CC(=O)CSc1nc(C)cc(C)c1C#N	i	3.8%	1e-09	i	0%
Cc1cn(C2OC(COC(=O)c3ccccc3)C(O)C2O)c(=O)[nH]c1=O (configuration not stated)	i	-0.9%	6.3e-09	i	0%

The final three entries of the section before lead into the next.
SMILES	A488 autofl	AID923	A647 autofl	Resorufin fluor	TSHR agonist
CSCCC(NC(=O)COc1ccccc1)C(=O)N1CCN(c2ccccc2F)CC1 (configuration not stated)	i	-2.7%	3.9e-09	i	3%
COC(=O)CC(=O)CSc1nc(C)cc(C)c1C#N	i	3.8%	1e-09	i	0%
Cc1cn(C2OC(COC(=O)c3ccccc3)C(O)C2O)c(=O)[nH]c1=O (configuration not stated)	i	-0.9%	6.3e-09	i	0%
COc1ccc(S(=O)(=O)N(C)CC(=O)N2CCCCCC2)cc1OC	i	-0.5%	3.9e-08	i	1%
O=C1c2ccccc2C(Nc2ccccc2F)N1c1cccnc1 (configuration not stated)	.	-0.2%	.	.	-8%
COc1cccc(C(=O)NCC(c2cccnc2)N2CCN(c3ccccc3OC)CC2)c1 (configuration not stated)	.	5.0%	.	.	?
Cc1ccc(Cn2nnc3c(=O)[nH]c(C4CCN(C(=O)c5cccs5)CC4)nc32)cc1	i	-2.5%	1.3e-08	i	-2%
Cc1cc(C)cc(NC(=O)c2nnn(Cc3cc(C)ccc3C)c2N)c1	.	-0.8%	.	.	-3%
COc1ccc(CCNc2ncnc3c2oc2ccccc23)cc1OC	i	0.0%	1e-09	i	?
O=C(NCc1cccnc1)c1cccc(NC(=O)c2ccco2)c1	i	-4.8%	1e-09	i	2%
CC1(C)CC(=O)c2sc(NS(=O)(=O)Cc3ccccc3)nc2C1	i	1.5%	1.9e-08	i	19%
CCOc1nc(-c2ccc(OC)cc2)ccc1-c1noc(-c2cccnc2)n1	i	3.5%	1.9e-09	i	-3%
CCOc1ccc(-n2c(=O)c3sccc3n(CC(=O)NCc3ccco3)c2=O)cc1	i	-0.2%	3.8e-09	i	-4%
COc1ccc(Cn2c3nc4ccccc4nc3c3c(=O)n(Cc4ccco4)cnc32)cc1	i	16%	3.2e-09	i	9%
CCN(CC)CCN1C(=O)C(=O)/C(=C(/O)c2ccc(OC(C)C)cc2)C1c1ccncc1 (configuration not stated)	i	.	1e-09	i	.
C=CCNc1nc2c(c(=O)n(C)c(=O)n2C)n1CCCCCC	i	-0.9%	8.6e-09	i	?
O=c1c(O)c(-c2ccc(O)cc2)oc2cc(O)cc(O)c12	i	-0.7%	2.2e-08&3e-08	i	-4%
O=c1oc2cc(Br)ccc2n1CSC1=NCCS1	i	1.2%	1.3e-09	i	?
CCn1cc(C(=O)NCC2CCCO2)c(=O)c2cc(S(=O)(=O)N3CCC(C)CC3)ccc21 (configuration not stated)	i	-2.4%	7.8e-09	i	2%
COC(=O)c1cn(C(=O)c2ccco2)c2ccccc12	.	-1.2%	.	.	3%
CC(=O)N1CCN(Cc2nc3cc(NC(=O)C4CCCCC4)ccc3n2C)CC1	i	-1.5%	3.4e-08	i	1%
CC1=C(C#N)C(Nc2cccc(C)n2)(C(F)(F)F)C(=O)N1 (configuration not stated)	i	-1.4%	1e-09	i	?
Cc1c(-c2nc(N)nc(Nc3ccccc3)n2)oc2ccccc12	i	0.1%	3.3e-08	i	.
CC(C)(C)NC(=O)C1CCN(S(=O)(=O)c2ccc(Br)cc2)CC1	i	2.1%	4.4e-09	i	7%
Nc1nc(NCc2c(F)cccc2Cl)nn1-c1ccccc1	i	1.5%	1.7e-08	i	2%
CCc1nnc(NC(=O)CCC(=O)Nc2ccccc2)s1	i	0.8%	1.2e-08	i	13%
COc1ccc(OC)c(C2C(C(C)=O)=C(O)C(=O)N2CCN2CCOCC2)c1 (configuration not stated)	.	3.0%	.	.	9%
COc1cc2nc(=S)n3[nH]c(CCn4c(C)nc5ccccc54)nc3c2cc1OC	i	2.1%	1.3e-08	i	-4%

Quoted from the listing.
For TSHR agonist, CCn1cc(C(=O)NCC2CCCO2)c(=O)c2cc(S(=O)(=O)N3CCC(C)CC3)ccc21 (configuration not stated) has the entry 2%
For A647 autofl, O=c1c(O)c(-c2ccc(O)cc2)oc2cc(O)cc(O)c12 has the entry 2.2e-08&3e-08
For AID923, CCOc1ccc(-n2c(=O)c3sccc3n(CC(=O)NCc3ccco3)c2=O)cc1 has the entry -0.2%
For A647 autofl, O=c1oc2cc(Br)ccc2n1CSC1=NCCS1 has the entry 1.3e-09
For A647 autofl, Cc1c(-c2nc(N)nc(Nc3ccccc3)n2)oc2ccccc12 has the entry 3.3e-08
For A647 autofl, CC1(C)CC(=O)c2sc(NS(=O)(=O)Cc3ccccc3)nc2C1 has the entry 1.9e-08

The list goes on:
SMILES	A488 autofl	AID923	A647 autofl	Resorufin fluor	TSHR agonist
O=C(NCc1ccc2c(c1)OCO2)c1cc2n(n1)C(C(F)(F)F)CC(c1ccc3c(c1)OCO3)N2 (configuration not stated)	i	2.0%	2.6e-08	i	-2%
Oc1ccc(CNCc2ccccc2)c2cccnc12	i	1.2%[11.5 µM]	1e-09	i	-2%[11.4 µM]
CCOC(=O)N1CCN(S(=O)(=O)c2c(C)cc(C)cc2C)CC1	i	0.0%	2.9e-08	i	11%
O=C(CN(Cc1ccc(F)cc1)S(=O)(=O)c1ccccc1)N1CCCCC1	.	0.2%	.	.	25µM*
Cc1ccc(CNC(=O)c2ccccc2NC(=O)CSc2nnnn2C)cc1	i	0.2%	1.1e-08	i	6%
O=C(NCCc1ccccc1)C1CCCN(S(=O)(=O)c2cccc3nsnc23)C1 (configuration not stated)	i	0.2%	1.5e-08	i	.
O=C(CSc1nnnn1-c1ccccc1)Nc1ccc(Cl)cc1	.	0.1%	.	.	5%
CCCCN(CC)CCNC(=O)c1cc2c(C)nc3ccccc3c2o1	.	-2.3%	.	.	1%
COc1ccc(Cl)cc1S(=O)(=O)N1CCN(C(=O)c2cc(OC)c(OC)c(OC)c2)CC1	i	-0.6%	2.6e-09	i	11%
CSCC[C@H](NC(=O)C1CCN(S(=O)(=O)c2ccc(C)cc2)CC1)C(=O)NCC1CCCO1 (some centres not stated)	i	0.1%	4.5e-08	i	-5%
CSc1nnc(-c2cnccn2)n1CCCN1CCCC1=O	i	-0.6%	5.1e-09	i	0%
CC(=O)c1ccc(N2CCN(c3ccc(C(F)(F)F)cn3)CC2)cc1	.	4.5%	.	.	23%
CCCCOc1ccc(N(CC(=O)NC2CCCC2)C(=O)CCC(=O)Nc2ccccn2)cc1	i	-1.2%	2.5e-08	i	2%
O=C(NCCc1ccccc1)c1ccc(-n2cnnn2)cc1	i	-1.9%	1.4e-09	i	-1%
O=C(CN1CC(=O)Oc2ccccc21)OCC(=O)c1ccccc1	i	0.8%	2.5e-09	i	-1%
Cc1ccc(C(=O)CC(C(=O)O)n2cccn2)cc1 (configuration not stated)	i	0.5%	7.7e-09	i	23%
NC(=O)SCC(=O)Nc1ccc2ncccc2c1	i	0.3%[11.5 µM]	3.8e-08	i	?
CCc1ccc(C(=O)CC2(O)C(=O)N(CN3CCOCC3)c3ccccc32)cc1 (configuration not stated)	i	0.2%	4e-08	i	?
CN1CCN(c2ccc(Cl)cc2NC(=O)c2cccc(S(=O)(=O)N(C)C)c2)CC1	i	-0.9%	1.8e-09	i	-10%
Cc1ccc(CNC(=O)c2sccc2-n2cccc2)cc1	i	-1.4%	4e-08	i	?
CCOc1ccccc1N1CCN(C(=O)c2cc[n+]([O-])cc2)CC1	i	0.2%	2.1e-08	i	.
c1ccc(CN2CCC3(CC2)SSC2(CCN(Cc4ccccc4)CC2)SS3)cc1	i	-1.8%[11.5 µM]	1e-09	i	3%[11.4 µM]
CCOC(=O)CSc1nc2ccccc2c(=O)n1Cc1ccco1	i	-1.7%	8.7e-09	i	?
O=C(O)C1CCN(C(=O)COc2ccc3c4c(c(=O)oc3c2)CCC4)CC1	i	8.7%	1.5e-08	i	5%
CN(C)CC(O)COc1ccc(C(C)(C)c2ccc(OCC(O)CN(C)C)cc2)cc1 (configuration not stated)	i	.	1e-09	i	.
Next part:
SMILES	A488 autofl	AID923	A647 autofl	Resorufin fluor	TSHR agonist
CCOC(=O)Cn1c(=O)oc2cc(S(=O)(=O)N(C)Cc3ccco3)ccc21	.	3.5%	.	.	-2%
CCNc1sc(C(=O)c2cccs2)c(N)c1C#N	i	.	2.1e-08	i	.
COC(=O)c1ccc(CSc2nnc(CNC(=O)COc3ccc(Cl)cc3)o2)o1	i	1.8%	4.2e-09	i	.
O=C(c1ccc(-c2cccc(C(F)(F)F)c2)o1)N1CCOCC1	i	0.4%	2e-08	i	14%
COc1ccc(S(=O)(=O)NCCC(=O)NCc2ccc(F)cc2)cc1	i	3.3%	9.3e-09	i	.
CC1Cc2ccccc2N1C(=O)C1CCCN(S(=O)(=O)c2cccc3nsnc23)C1 (configuration not stated)	i	1.2%	3.5e-08	i	-2%[11.4 µM]
Cc1ccc(C(c2nnnn2C(C)(C)C)N(Cc2ccco2)Cc2cccs2)cc1 (configuration not stated)	i	1.3%	1.1e-08	i	?

High-throughput results as filed in PubChem BioAssay.
